2A StopGo: High Throughput Screening for Foot and Mouth Disease Virus Antivirals; AID 1159524, 2015; 410,000 compounds, 1.2% hits; human cells with a luciferase reporter of 2A StopGo recoding; control for the full effect not named in the record; Potency, µM (highest dose often 57.9 µM), for inactives: at the top dose signal change, negative = less light; active = well fitted falling curve with a large enough effect; inconclusive = small, poorly fitted or top-dose-only effect; inactive = no such curve, though single readings can be large or run the other way; tested in HEK293T cells; further: on the % scale 0 is the no-effect control and ±100 the full control effect; nearly all actives have a fitted effect of over 45% in size; luciferase light after 4 h
MARV entry inh: qHTS for inhibitors of binding or entry into cells for Marburg Virus; Marburg virus pseudotyped entry inhibition, cell reporter; control for the full effect not named in the record; about a third of the inactives were read at about 46 µM; Potency, µM (highest dose often 37.8 µM), inactives show top-dose activity change, negative = inhibition, usual class: inhibitors; 300,000 compounds, 1.8% hits; AID 540276, 2011; active = well fitted inhibition curve with a large enough effect; inconclusive = small, poorly fitted or top-dose-only effect, or effect the other way; inactive = flat fitted curve, though single readings scatter; tested in HEK293 cells; about a fifth of its hits are not listed in these tables; further: on the % scale 0 is the no-effect control and ±100 the full control effect; luciferase read-out
SARS PLP yeast: qHTS of Yeast-based Assay for SARS-CoV PLP; Potency, µM (highest dose often 32.9 µM), without a hit: at the top dose activity, positive = growth rescue; S. cerevisiae expressing SARS-CoV PLpro, growth rescue; control for the full effect not named in the record; AID 485353, 2010; 330,000 compounds, 0.19% hits; active means well fitted rising curve with a large enough effect; inconclusive means small, poorly fitted or top-dose-only effect; inactive means no such curve, though single readings can be large or run the other way; further: 0% is about no effect; nearly all actives have a fitted effect of over 55% in size; growth read by luminescence after 48 h
NS1 inh: qHTS Assay for Inhibitors of Influenza NS1 Protein Function. S. cerevisiae slowed by influenza A NS1, growth recovery by OD600. Potency, µM (titrated, usually from 46.1 µM), for the others: at the top dose activity, positive = more growth. 270,000 compounds, 0.4% hits. AID 2326, 2010; active means well fitted rising curve with a large enough effect; inconclusive means small, poorly fitted or top-dose-only effect; inactive means no such curve, though single readings can be large or run the other way; further: nearly all actives have a fitted effect of over 50% in size
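S. cerevisiae expressing influenza A NS1, grown in glucose, washed, then diluted 1:100 into pH 6.0 -URA galactose medium with 23 nl compound. Growth recovery read as OD600; NS1-free strain serves as control.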
Cruzain inh Det: qHTS Assay for Promiscuous and Specific Inhibitors of Cruzain (with detergent) | AID 1478, 2009 | Potency, µM, for inactives: max response, negative = inhibition, hits mostly inhibitors | Cruzipain (Trypanosoma cruzi), P25779 | 200,000 compounds, 0.43% hits | purified cruzain, Z-FR-AMC fluorescence, 0.01% Triton;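 further: plate controls were neutral wells for no effect and buffer without enzyme for full effect; nearly all actives have a fitted effect of over 40% in size; top concentration of the series not given in the record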
Target sequence (P25779 123-467 limits assumed): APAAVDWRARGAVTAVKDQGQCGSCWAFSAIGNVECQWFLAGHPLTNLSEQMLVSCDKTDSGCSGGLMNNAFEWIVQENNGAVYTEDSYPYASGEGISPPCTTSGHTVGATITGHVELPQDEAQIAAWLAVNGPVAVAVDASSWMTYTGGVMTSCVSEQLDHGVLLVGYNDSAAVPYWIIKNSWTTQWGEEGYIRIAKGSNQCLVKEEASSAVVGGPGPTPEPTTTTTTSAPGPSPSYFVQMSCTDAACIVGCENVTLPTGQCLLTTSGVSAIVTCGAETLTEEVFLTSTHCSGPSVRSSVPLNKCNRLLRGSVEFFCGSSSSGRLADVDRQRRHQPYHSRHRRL
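Cysteine protease activity tested under reducing, mildly acidic conditions (100 mM sodium acetate pH 5.5, 5 mM DTT) plus 0.01% Triton X-100. Cruzain 1.5 nM; substrate Z-FR-AMC 2 uM; 15 min compound preincubation at room temperature.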
RE007 growth inh: qHTS Assay for Inhibitors of the HIV-1 protein Vpr | Potency, µM (doses to about 92.2 µM), for the others: top-dose activity change, negative = less growth | S. pombe RE007 Vpr strain, BacTiter-Glo ATP luminescence, 24 h; control for the full effect not named in the record | 360,000 compounds, 0.21% hits; active = well fitted falling curve with a large enough effect; inconclusive = small, poorly fitted or top-dose-only effect; inactive = no such curve, though single readings can be large or run the other way;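 further: on the % scale 0 is the no-effect control and ±100 the full control effect; nearly all actives have a fitted effect of over 50% in size; the assay follows cell death caused by Vpr and the record does not say whether a fall means rescue or toxicity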
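Fission yeast strain RE007, carrying one chromosomally integrated HIV-1 vpr copy, was seeded at OD 0.01 in PMG+AL medium with 23 nL pinned compound. After 24 h at 30 °C and 99% humidity, viability was read by BacTiter-Glo luminescence.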
Lassa entry inh: qHTS for Inhibitors of binding or entry into cells for Lassa Virus; Lassa virus pseudotype entry inhibition, cell reporter; control for the full effect not named in the record; Potency, µM (doses to about 37.9 µM), without a hit: top-dose activity change, negative = inhibition, usual class: inhibitors; 300,000 compounds, 1.2% hits; active means well fitted inhibition curve with a large enough effect; inconclusive means small, poorly fitted or top-dose-only effect, or effect the other way; inactive means flat fitted curve, though single readings scatter; tested in HEK293 cells; further: on the % scale 0 is the no-effect control and ±100 the full control effect; nearly all actives have a fitted effect of over 50% in size; luciferase read-out
Cruzain inh noDet: qHTS Assay for Promiscuous and Specific Inhibitors of Cruzain (without detergent). purified cruzain, Z-FR-AMC fluorescence, no detergent. AID 1476, 2009. Potency, µM, for the others: max response, negative = inhibition, usual class: inhibitors. 200,000 compounds, 2.3% hits. Cruzipain (Trypanosoma cruzi), P25779;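 further: plate controls were enzyme without inhibitor for no effect and buffer without enzyme for full effect; nearly all actives have a fitted effect of over 40% in size; top concentration of the series not given in the record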
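Detergent-free condition (0.00005% Triton X-100) in acetate buffer pH 5.5 with DTT. 1.5 nM enzyme and compound were pre-mixed 15 min, then 2 uM Z-FR-AMC substrate added; reaction progress from fluorescence change between first and third reads (60 s).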
* hit, by the source's call; ? = inconclusive; / = not tested or not shown; & = joins results of further samples; [ ] = another dose, or the depositor's remark. Unless noted, the call rests on the fitted dose curve; in most records, active means well fitted curve in the direction sought with a large enough effect; inconclusive means small, poorly fitted or top-dose-only effect, or another doubt; inactive means no such curve, though single readings can be large; an effect the other way counts as inactive or inconclusive. Potency means the concentration at half of the fitted maximal effect.

SMILES | Lassa entry inh | Cruzain inh noDet | MARV entry inh | 2A StopGo | NS1 inh | RE007 growth inh | SARS PLP yeast | Cruzain inh Det
CCOC(=O)CSc1ncnc2c(C(=O)OCC)c3n(c12)CCC3 | -3.0% | -3.3% | 12.9% | 11.5% | -22.1% | 5.0% | 21.0% | -3.5%
CCC(=O)N(CCc1ccccc1)Cc1cc2cc(C)ccc2[nH]c1=O | / | / | / | -10.7% | 1.8% | 0.5% | -2.0% | /
O=c1[nH]snc1N1CCOCC1 | 14.7%[46.1 µM] | / | -1.2%[46.1 µM] | -9.3% | / | 1.2% | -1.3% | /
Cc1c(C(=O)N2CCC3(CC2)OCCO3)sc2ncnc(N(C)c3ccccc3)c12 | -8.8% | 2.7% | -6.7% | 0.0% | -12.1% | -11.1% | 2.9% | 2.7%
Cc1cc(C(=O)C(C)OC(=O)c2ccc(NC(=O)CC#N)cc2)c(C)n1-c1ccc(OC(F)F)cc1 (stereo not given) | 14.1µM* | / | ? | 0.0% | / | 9.2% | -4.7% | /
Cc1cc(C)c2c(N)c(C(=O)c3ccc(Br)cc3)oc2n1 | 15.2%[46.1 µM] | / | -9.7%[46.1 µM] | 7.5% | -46.6% | -15.9% | -3.6% | /
CCN1CCN(C(=O)c2ccc3c(c2)N(Cc2ccc(F)cc2)C(=O)c2ccccc2S3(=O)=O)CC1 | ? | -9.2% | -0.8%[46.1 µM] | -0.6% | / | / | / | 0.6%
COC(=O)C(NC(=O)c1ccc(C)cc1)(Nc1cccc(C)n1)C(F)(F)F (stereo not given) | ? | -1.3% | -5.2% | -26.6% | -2.2% | -10.3% | -19.2% | -6.6%
Cn1nc(-c2ccc(N3CCN(CCO)CC3)c([N+](=O)[O-])c2)c2ccccc2c1=O | 0.4%[46.1 µM] | / | -2.1%[46.1 µM] | -11.3% | -1.2% | 47.4% | -0.1% | /
CC1=CC(=C(C#N)c2nc3ccccc3s2)C=C(C)N1c1ccc(F)cc1F | 13.4% | 31.6µM* | 20.3% | 0.0% | 7.2% | 6.9% | -4.2% | -8.6%
Cc1ccc(NC(=O)c2ccc(Cl)c(S(=O)(=O)NCC3CCCO3)c2)c(O)c1 (stereo not given) | -25.5% | / | -6.0% | 1.7% | 3.5% | 3.8% | 3.7% | /
CCc1ccc(CN2CCC(n3nccc3NC(=O)c3cccc(F)c3)CC2)cc1 | -19.2% | / | ? | ? | 0.8% | 2.3% | -0.9% | /
CCOC(=O)c1cc(S(=O)(=O)N2CCN(Cc3ccccc3)CC2)cn1C | / | / | / | -23.5% | -14.9% | 13.2% | 0.4% | /
COC(=O)c1ccc(COn2c(=O)c(C)[n+]([O-])c3ccccc32)cc1 | -2.1% | -17.1% | -7.4% | 2.9% | 1.8% | -11.6%[3.69 µM] | -7.4% | ?
C=CCc1cc(Cl)ccc1OCCOCCN(C)C | -11.0% | / | ? | -6.3% | -3.6% | 26.1% | 0.5% | /
O=C(CCNc1ccc(F)c(Cl)c1)c1ccco1 | -13.7% | -0.4% | 1.8% | / | -12.4% | -23.8% | -17.6% | -0.6%
Cc1cccnc1NC(=O)Nc1cccs1 | 21.8% | -1.9% | 10.2% | 33.6%[activator] | -42.1% | -4.5% | -6.9% | -11.5%
COCCCNCC#CCOc1ccc(OC)cc1 | -0.7% | / | -1.7%[46.1 µM] | -15.8% | 2.8% | -7.6% | 6.7% | /
Cc1c(C)n2c(SCC(=O)N3CCCC3)nnc2[nH]c1=O | 14.5% | / | ? | 0.8% | / | -6.1% | / | /
COc1ccc(C(=O)NC(=S)Nc2ccc(CN3CCCCC3)cc2)cc1Cl | ? | / | ? | -12.3% | 3.8% | -20.0% | -0.6% | /
Cc1cc2c(cc1S(=O)(=O)CCC(=O)NCc1ccccc1)OCC(=O)N2 | -8.7%[46.1 µM] | ? | / | -16.2%&-16.1% | -17.1% | -11.4% | 0.7% | -6.6%
CNC(=O)C(C)Sc1ccc(S(=O)(=O)N2CCOCC2)cn1 (stereo not given) | 4.7% | / | 21.1% | -9.8% | / | 5.4% | 6.9% | /
O=C(Nc1nnc(CCN2CCCCC2)s1)C1CCCCC1 | 0.2% | 1.7% | -16.5% | -21.3% | -7.0% | 16.1% | -2.5% | 2.2%
O=C(NCc1ccco1)c1cc(-c2cccc(Cl)c2)on1 | ? | -0.7% | ? | 57.9%[activator] | -2.6% | 0.8% | -23.4% | 7.1%
O=C(CSc1ncnc2c1oc1ccccc12)OCc1ccccc1 | -3.7% | -1.3% | 14.8% | -9.1% | -42.8% | -11.9% | 2.8% | 2.1%
O=C(NCc1ccccc1)/C(=C\c1ccc(O)cc1)NC(=O)c1ccco1 | 7.9% | / | ? | 12.9% | 2.6% | 2.1% | 58.9% | /
O=C(OCc1cccc2ccccc12)C1CC(=O)N(c2ccccc2)C1 (stereo not given) | -1.1% | -1.0% | 19.5% | -18.3% | -7.5% | -13.1% | 5.7% | -1.8%
COc1cccc(C2C(C(=O)Nc3ccc(Cl)cc3)=C(C)Nc3c(C(=O)Nc4ccccc4)cnn32)c1OC (stereo not given) | ? | ? | ? | ? | / | / | / | -4.8%
CCOC(=O)N1CCN(C(=O)c2ccc3c(Cl)c4c(nc3c2)CCCC4)CC1 | / | / | / | 18.3% | -15.9% | -3.4% | -1.2% | /
COc1ccc(C(=S)N2CCOCC2)cc1OC(=O)c1ccc([N+](=O)[O-])cc1 | -2.9%[46.1 µM] | / | 16.0%[46.1 µM] | -9.6% | -4.0% | 2.4% | -0.6% | /
CC(C)C(=O)Nc1nnc(CCN2CCOCC2)s1 | ? | -19.9% | 1.9% | 10.7% | 4.6% | 5.8% | -2.5% | 1.1%
COCc1cc(N2CCOCC2)nc(SCc2ccc(Cl)cc2)n1 | ? | / | -24.1%[46.1 µM] | -6.8% | / | -19.1% | -30.8% | /
COc1cccc(Cn2ccn(-c3ccc(F)cc3)c(=O)c2=O)c1 | 9.2%[46.1 µM] | -2.1% | / | -9.8% | / | / | / | -3.5%
Cc1ccc2c(c1)c1c3n2CCN(C(=O)C2CC2)C3CCC1 (stereo not given) | / | -10.7% | / | -1.0% | -78.3% | 11.5% | -1.4% | -7.2%
CC(=O)N1CCc2c(sc3c2c(=O)n(-c2cc(Cl)ccc2C)c(=O)n3C)C1 | / | 2.7% | 24.5%[46.1 µM] | -4.8% | / | / | / | 7.7%
COc1ccc(CN(Cc2ccco2)S(=O)(=O)c2ccc(S(=O)(=O)N3CCCC3)cc2)cc1 | 4.3% | -4.4% | 2.3% | 5.4% | -2.0% | 1.3% | -2.5% | -0.6%
COc1cccc(C(=O)Nn2c(-c3cccs3)nc3ccccc3c2=O)c1OC | -3.4% | 17.0% | -4.5% | -26.8% | 27.3% | 3.3% | 7.3% | -6.6%
Cc1nn(C(C)C(=O)NCc2ccc(OC(C)C)cc2)c(=O)c2c1sc1ccccc12 (stereo not given) | -8.6%[46.1 µM] | 27.6% | 27.4%[46.1 µM] | 1.7% | / | / | / | ?
CCc1noc(C)c1C(=O)OCC(=O)N(CC)c1c(N)n(Cc2ccccc2)c(=O)[nH]c1=O | 3.0% | / | 0.6% | -13.7% | / | 2.3% | -8.5% | /
COc1ccc(N2CCN(CC(O)COCCOc3ccc(Br)cc3)CC2)cc1 (stereo not given) | ? | 3.5% | ? | -8.2% | -9.7% | 12.3% | -38.2% | -7.6%

Reprinted at random: 2 entries already listed.
SMILES | Lassa entry inh | Cruzain inh noDet | MARV entry inh | 2A StopGo | NS1 inh | RE007 growth inh | SARS PLP yeast | Cruzain inh Det
O=c1[nH]snc1N1CCOCC1 | 14.7%[46.1 µM] | / | -1.2%[46.1 µM] | -9.3% | / | 1.2% | -1.3% | /
O=C(NCc1ccccc1)/C(=C\c1ccc(O)cc1)NC(=O)c1ccco1 | 7.9% | / | ? | 12.9% | 2.6% | 2.1% | 58.9% | /

New compounds follow.
SMILES | Lassa entry inh | Cruzain inh noDet | MARV entry inh | 2A StopGo | NS1 inh | RE007 growth inh | SARS PLP yeast | Cruzain inh Det
CCOC(=O)N(C)c1ccc(C(O)(C(F)(F)F)C(F)(F)F)cc1 | ? | ? | ? | -26.8% | -13.3% | 2.5% | 0.4% | 2.2%
CC(C)(C)C1=C(C#N)C(c2cc3c(cc2Br)OCO3)C(C#N)=C(N)O1 (stereo not given) | 0.4% | -10.1% | -0.7% | -16.1% | -70.2% | -6.0% | -3.0% | -12.9%
CS(=O)(=O)NCCSc1cc(C(F)(F)F)nc2ccccc12 | -14.7% | / | 29.1%[14.2 µM] | -8.5% | 1.8% | -8.4% | -0.5% | /
CC(NC(=O)CNC(=O)OCc1ccccc1)C(=O)N1CC(O)CC1C(=O)OCc1ccccc1 (stereo not given) | 1.8% | 10.3% | 19.7%&19.7%[46.1 µM] | -20.8% | -4.8% | 4.6% | 3.3% | -0.8%
CCOc1ccc(CNC(=O)C2CCN(C(=O)c3ccc(-n4ccc5ccccc54)s3)CC2)cc1 | -25.6%[46.1 µM] | 16.6% | / | -22.3% | / | / | / | -1.8%
CCN(CC)CCCN1C(=O)C(=O)/C(=C(/O)c2ccc3c(c2)CC(C)O3)C1c1cccnc1 (stereo not given) | / | 2.4% | -0.6% | / | 12.8% | / | 2.6% | 3.7%
O=S(=O)(/N=C(/Nc1ccccc1)c1ccccc1O)c1ccccc1 | / | / | / | 10.7% | -3.9% | 6.5% | 0.5% | /
Cc1ccc(C(=O)Cc2ccccc2)cc1 | -20.9%[46.1 µM] | / | ? | 37.5%[activator] | / | -11.4% | / | /
Cc1c(N)cccc1-n1cccc1 | / | / | -10.6%[46.1 µM] | 4.9% | / | 2.8% | 4.6% | /
COC(=O)CCNC(=O)c1ccc2[nH]c(C)c(C)c2c1 | -2.6%[46.1 µM] | / | -2.0%[46.1 µM] | 16.3% | 0.6% | -18.6% | 2.6% | /

Screens as filed in PubChem BioAssay.

Outcome played no part in choosing rows (roughly 4.8% active in at least one column).
